LASV entry inh – inhibitors of Lassa virus binding or cell entry; Lassa virus pseudotype entry inhibition, cell reporter; control for the full effect not named in the record; Potency, µM (top dose mostly 37.9 µM), for inactives: at the highest dose activity change, negative = inhibition, hits mostly inhibitors; hit rate 1.2% among 300,000; active means well fitted inhibition curve with a large enough effect; inconclusive means small, poorly fitted or top-dose-only effect, or effect the other way; inactive means flat fitted curve, though single readings scatter; tested in HEK293 cells; also: % is scaled to controls: 0 for no effect and ±100 for the full control effect; nearly all actives have a fitted effect of over 50% in size; luciferase read-out
Cruzain noTriton – inhibitors of Trypanosoma cruzi cruzain without detergent. Potency, µM, without a hit: max response, negative = inhibition, hits mostly inhibitors. purified cruzain, Z-FR-AMC fluorescence, no detergent. P25779. hit rate 2.3% among 200,000;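 also: plate controls were enzyme without inhibitor for no effect and buffer without enzyme for full effect; nearly all actives have a fitted effect of over 40% in size; top concentration of the series not given in the record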
Target sequence (P25779 123-467 limits assumed): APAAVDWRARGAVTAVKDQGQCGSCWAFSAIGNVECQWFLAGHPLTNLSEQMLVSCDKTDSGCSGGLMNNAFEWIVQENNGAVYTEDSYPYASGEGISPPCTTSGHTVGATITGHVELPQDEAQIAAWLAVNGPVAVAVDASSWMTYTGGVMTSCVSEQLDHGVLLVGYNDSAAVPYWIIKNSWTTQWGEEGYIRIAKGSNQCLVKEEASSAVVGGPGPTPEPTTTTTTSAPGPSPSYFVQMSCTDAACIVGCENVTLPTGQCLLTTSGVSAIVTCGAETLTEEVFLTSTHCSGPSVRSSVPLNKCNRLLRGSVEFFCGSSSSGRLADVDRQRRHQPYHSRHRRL
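Purified cruzain at 1.5 nM, pre-incubated 15 min with compound at room temperature in 100 mM sodium acetate pH 5.5, 5 mM DTT, 0.00005% Triton X-100. Reaction started with 2 uM Z-FR-AMC; AMC fluorescence increase over 60 s gives rate.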
NS1 inh – influenza NS1 inhibition; S. cerevisiae slowed by influenza A NS1, growth recovery by OD600; Potency, µM (highest dose often 46.1 µM), for the others: at the highest dose activity, positive = more growth; hit rate 0.4% among 270,000; active means well fitted rising curve with a large enough effect; inconclusive means small, poorly fitted or top-dose-only effect; inactive means no such curve, though single readings can be large or run the other way; also: nearly all actives have a fitted effect of over 50% in size
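A cell-based growth assay was used: compounds that relieve NS1-induced slow growth of budding yeast raise OD600. Assay medium was yeast nitrogen base with ammonium sulphate and -URA supplement, pH 6.0, with 2% galactose.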
RE007 growth inh – less growth of the S. pombe RE007 Vpr strain; S. pombe RE007 Vpr strain, BacTiter-Glo ATP luminescence, 24 h; control for the full effect not named in the record; Potency, µM (top dose mostly 92.2 µM), for the others: at the highest dose activity change, negative = less growth; hit rate 0.21% among 360,000; active = well fitted falling curve with a large enough effect; inconclusive = small, poorly fitted or top-dose-only effect; inactive = no such curve, though single readings can be large or run the other way;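 also: % is scaled to controls: 0 for no effect and ±100 for the full control effect; nearly all actives have a fitted effect of over 50% in size; the assay follows cell death caused by Vpr and the record does not say whether a fall means rescue or toxicity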
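Fission yeast strain RE007, carrying one chromosomally integrated HIV-1 vpr copy, was seeded at OD 0.01 in PMG+AL medium with 23 nL pinned compound. After 24 h at 30 °C and 99% humidity, viability was read by BacTiter-Glo luminescence.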
StopGo reporter – lowers the luciferase signal of an FMDV 2A StopGo reporter. human cells with a luciferase reporter of 2A StopGo recoding; control for the full effect not named in the record. hit rate 1.2% among 410,000. Potency, µM (highest dose often 57.9 µM), inactives show top-dose signal change, negative = less light; active = well fitted falling curve with a large enough effect; inconclusive = small, poorly fitted or top-dose-only effect; inactive = no such curve, though single readings can be large or run the other way; tested in HEK293T cells; also: % is scaled to controls: 0 for no effect and ±100 for the full control effect; nearly all actives have a fitted effect of over 45% in size; luciferase light after 4 h
MARV entry inh – blocks Marburg virus binding to or entry into cells | hit rate 1.8% among 300,000 | Marburg virus pseudotyped entry inhibition, cell reporter; control for the full effect not named in the record; about a third of the inactives were read at about 46 µM | Potency, µM (titrated, usually from 37.8 µM), without a hit: at the highest dose activity change, negative = inhibition, usual class: inhibitors; active = well fitted inhibition curve with a large enough effect; inconclusive = small, poorly fitted or top-dose-only effect, or effect the other way; inactive = flat fitted curve, though single readings scatter; tested in HEK293 cells; about a fifth of its hits are not listed in these tables; also: % is scaled to controls: 0 for no effect and ±100 for the full control effect; luciferase read-out
SARS PLP yeast – inhibitors of SARS-CoV papain-like protease in yeast | S. cerevisiae expressing SARS-CoV PLpro, growth rescue; control for the full effect not named in the record | Potency, µM (top dose mostly 32.9 µM), without a hit: top-dose activity, positive = growth rescue | hit rate 0.19% among 330,000; active means well fitted rising curve with a large enough effect; inconclusive means small, poorly fitted or top-dose-only effect; inactive means no such curve, though single readings can be large or run the other way; also: 0% is about no effect; nearly all actives have a fitted effect of over 55% in size; growth read by luminescence after 48 h
Cruzain inh Det – blocks cruzain activity in presence of Triton detergent; P25779; purified cruzain, Z-FR-AMC fluorescence, 0.01% Triton; Potency, µM, without a hit: max response, negative = inhibition, hits mostly inhibitors; hit rate 0.43% among 200,000; AID 1478;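 also: plate controls were neutral wells for no effect and buffer without enzyme for full effect; nearly all actives have a fitted effect of over 40% in size; top concentration of the series not given in the record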
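Cruzain (1.5 nM) preincubated 15 min at RT with compound in 100 mM sodium acetate pH 5.5, 5 mM DTT, 0.01% Triton X-100. Reaction started with 2 uM Z-FR-AMC; AMC fluorescence (ex 360/em 450 nm) change over 60 s gave rate.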
* = called active by the depositor; ? = inconclusive; nt = not tested or not shown; [ ] = another dose, or the depositor's remark. Unless noted, calls follow the shape of the dose curve; as a rule, active = well fitted curve in the direction sought with a large enough effect; inconclusive = small, poorly fitted or top-dose-only effect, or another doubt; inactive = no such curve, though single readings can be large; an effect the other way counts as inactive or inconclusive. Potency is read from the fitted curve at half-maximal effect.

compound	LASV entry inh	Cruzain noTriton	NS1 inh	RE007 growth inh	StopGo reporter	MARV entry inh	SARS PLP yeast	Cruzain inh Det
Cc1ccc(Cn2nnc3c(=O)[nH]c(C4CCN(C(=O)Cc5ccccc5F)CC4)nc32)cc1	-12%[46.1 µM]	?	nt	nt	-18%	2%[46.1 µM]	nt	-2.0%
CC(=O)c1ccc(N2CCN(C(=S)NCCCN(C)C)CC2)cc1	-4%[46.1 µM]	nt	nt	9%	30%	3%[46.1 µM]	3%	nt
Cc1cc(N(CCCl)CCCl)ccc1/C=N/N=C(\N)c1cnccn1	?	nt	nt	-4%	19%	2.2µM*	nt	nt
COc1cccc(NC(=O)COc2cccc3c2CCNC3=O)c1	-1%	nt	nt	-9%	-6%	-10%	-1%	nt
COc1ccc(-c2cc(C(=O)Nc3ccc(F)cc3F)no2)cc1	9%[46.1 µM]	nt	-2%	5%	-6%	9%[46.1 µM]	12%	nt
COc1ccc(CCNc2nnc(Sc3nnnn3-c3ccccc3)s2)cc1OC	-21%	7%	-4%	-8%	28µM*	?	-6%	-2.4%
O=C(N/N=C\c1ccc([N+](=O)[O-])o1)C1COc2ccccc2O1 (stereo not drawn)	?	nt	nt	-24%	-6%	?	-4%	nt
CCc1c(C)sc2c1CCN(C(=O)Nc1ccccc1C(=O)OC)C2c1ccc(F)cc1 (stereo not drawn)	2%[46.1 µM]	?	nt	nt	-30%	nt	nt	0.3%
Cc1ccc(CS(=O)(=O)Cc2ccc(C(=O)NCc3cccnc3)o2)cc1	-14%	-16%	10%	5%	nt	-18%	-1%	6.5%
CCNc1nc(SC(C)C(=O)Nc2ccccc2)nc(N2CCOCC2)n1 (stereo not drawn)	9%	-14%	6%	-21%	-1%	-4%	6%	2.2%
Cc1ccc(/C=N/NC(=O)COc2ccccc2-c2ccccc2)cc1	1.6µM*	-14%	0%	-16%	-8%	1.3µM*	-43%	-2.0%
O=S(=O)(c1ccc(-c2ccccn2)s1)N1CCC2(CC1)OCCO2	18%	nt	-7%	6%	-10%	-1%[46.1 µM]	1%	nt
Nc1ccc2c(C(F)(F)F)cc(C(F)(F)F)nc2n1	12%	nt	-9%	1%	-16%	3%[46.1 µM]	-2%	nt
COc1ccccc1Nc1nc(NCCCN(C)C)nc(N)c1[N+](=O)[O-]	-29%	nt	5%	-19%	-25%	?	0%	nt
COc1cccc(CNc2ccc(S(N)(=O)=O)cc2)c1OC	14%	-1%	0%	5%	-3%	-3%	?	7.0%
O=C(NCc1ccccc1)c1ccc(CNc2c(N3CCCC3)c(=O)c2=O)cc1	nt	nt	4%	12%	-12%	nt	7%	nt
O=C(c1ccccc1)c1ccc(N2CCOCC2)c(NC(=O)c2ccco2)c1	-21%	?	-69%	?	?	?	-40%	-9.5%
CC1CCN(c2ccc(C=O)o2)CC1	10%	nt	2%	-13%	12%	23%	1%	nt
COc1ccc(C2NCCc3c2[nH]c2ccccc32)cc1CN1CCc2cc(OC)c(OC)cc2C1C (stereo not drawn)	nt	nt	-1%	-13%	-15%	nt	-1%	nt
N#Cc1nc(-c2ccc(COc3ccccc3)o2)oc1N1CCN(c2ccccc2)CC1	15%[46.1 µM]	-2%	nt	nt	-15%	-2%[46.1 µM]	nt	-1.3%
O=C1CC(c2ccccc2)CC(=O)C1CS(=O)(=O)c1ccccc1 (stereo not drawn)	-10%[46.1 µM]	nt	nt	1%	-20%	7%[46.1 µM]	-3%	nt
COc1ccc(Nc2ncnc3nc[nH]c23)cc1OC	nt	1%	4%	-6%	10%	nt	-2%	3.3%
Cc1[nH]c2ccccc2c1C(=O)C(=O)NCCc1c[nH]c2ccccc12	nt	nt	18%	-3%	-1%	nt	-3%	nt
O=C(CCc1ccccc1)Nc1nn[nH]n1	2%	-7%	11%	17%	-18%	-5%	25%	-0.8%
COCCNC(=O)c1cc2cc(Br)cc(Br)c2oc1=O	7%[46.1 µM]	nt	nt	-12%	1%	2%[46.1 µM]	2%	nt
O=S(=O)(c1ccc2oc3ccccc3c2c1)N1CCOCC1	-4%	-1%	-9%	22%	-15%	-15%	8%	-2.0%
COc1cc(CC(=O)N2CCC(n3nccc3NC(=O)C3CC3)CC2)cc(OC)c1OC	-3%	nt	9%	12%	-12%	4%	0%	nt
O=C(C/C=N\OCc1ccc([N+](=O)[O-])cc1)Nc1ccc(F)cc1F	-12%	nt	-10%	3%	-19%	0%[46.1 µM]	2%	nt
COC(=O)c1[nH]c2cccc(OC)c2c1NC(=O)CCN1CCSCC1	8%	nt	4%	-6%	-4%	3%[46.1 µM]	0%	nt
COCCn1c(C)cc(O)c(C(c2ccccc2F)N2CCN(c3ccccc3)CC2)c1=O (stereo not drawn)	0%[46.1 µM]	?	nt	nt	-23%	nt	nt	0.1%

Compound profiles, as listed above. Values in the order: LASV entry inh | Cruzain noTriton | NS1 inh | RE007 growth inh | StopGo reporter | MARV entry inh | SARS PLP yeast | Cruzain inh Det
CCc1c(C)sc2c1CCN(C(=O)Nc1ccccc1C(=O)OC)C2c1ccc(F)cc1 (stereo not drawn) across the screens: 2%[46.1 µM] | ? | nt | nt | -30% | nt | nt | 0.3%
COCCn1c(C)cc(O)c(C(c2ccccc2F)N2CCN(c3ccccc3)CC2)c1=O (stereo not drawn) across the screens: 0%[46.1 µM] | ? | nt | nt | -23% | nt | nt | 0.1%

A draw from above in order of number of heavy atoms, lowest first.
compound	LASV entry inh	Cruzain noTriton	NS1 inh	RE007 growth inh	StopGo reporter	MARV entry inh	SARS PLP yeast	Cruzain inh Det
O=S(=O)(c1ccc2oc3ccccc3c2c1)N1CCOCC1	-4%	-1%	-9%	22%	-15%	-15%	8%	-2.0%
Cc1cc(N(CCCl)CCCl)ccc1/C=N/N=C(\N)c1cnccn1	?	nt	nt	-4%	19%	2.2µM*	nt	nt
Cc1ccc(/C=N/NC(=O)COc2ccccc2-c2ccccc2)cc1	1.6µM*	-14%	0%	-16%	-8%	1.3µM*	-43%	-2.0%

Carrying on.
compound	LASV entry inh	Cruzain noTriton	NS1 inh	RE007 growth inh	StopGo reporter	MARV entry inh	SARS PLP yeast	Cruzain inh Det
O=C(NCc1ccccn1)C(=O)N/N=C/c1ccc2c(c1)OCO2	nt	nt	3%	-8%	56%[activator]	nt	0%	nt
COc1cccc(NCc2cc(=O)oc3cc(-c4ccccc4)c(O)cc23)c1	2%	?	3%	-3%	?	?	18%	-3.4%
O=C(NCCSc1ccccc1)c1ccc(Br)cc1	13µM*	12%	-26%	2%	-11%	?	-24%	-7.7%
CCOc1ccc(CN(C)C(C)C(=O)NCc2ccccc2)cc1 (stereo not drawn)	nt	nt	4%	-3%	0%	nt	0%	nt
O=C(C(=O)N1CCCC1)c1c[nH]c2ccccc12	6%[46.1 µM]	nt	1%	-12%	-8%	-2%[46.1 µM]	0%	nt
COc1ccc2[nH]c(C(=O)O)c(NS(=O)(=O)c3ccc(F)cc3)c2c1	nt	nt	9%	-3%	5%	nt	0%	nt
CCc1ccccc1NC(=S)N1CCNC(=O)C1CC(=O)OC (stereo not drawn)	-1%	nt	4%	2%	-2%	20%[46.1 µM]	1%	nt
O=C(Cc1csc(N2CCOCC2)n1)N/N=C/c1ccc(Cl)cc1Cl	?	-4%	-3%	18%	?	?	-18%	-17%
O=C(Cc1ccc(Cl)cc1)Nc1cccc(C(=O)Nc2ccccc2C(=O)O)c1	42%	nt	16%	-3%	7%	29%	-2%	nt
CCCNC(=O)NC(=O)CSc1nnc(-c2ccncc2)n1CC	6%	-14%	-1%	-6%	-5%	28%	3%	2.4%
Cc1cc(N)ccc1N1CCCC1	4%	16µM*	6%	-10%	-6%	-17%	-9%	?
Cc1ccc2nc(-c3cccnc3)cc(C(=O)Nc3ccc(F)cc3C)c2c1	?	nt	3%	21%	?	?	-1%	nt
COC(=O)C(NC(=O)c1ccccc1C(=O)O)c1ccc2ccccc2c1 (stereo not drawn)	-4%[46.1 µM]	nt	4%	-8%	-1%	7%[46.1 µM]	0%	nt
Cc1cc2[nH]ncc2cc1NC(N)=S	6%	nt	nt	9%	11%	-2%[46.1 µM]	2%	nt
CN(C)S(=O)(=O)c1cccc(C(=O)NCC(=O)NC2CCN(Cc3ccccc3)CC2)c1	10%[46.1 µM]	nt	?	-12%	-11%	-8%[46.1 µM]	3%	nt
Cc1cc(NC(=O)CSc2nnc(-c3ccncc3)n2C)n(-c2ccccc2)n1	nt	nt	-1%	-4%	-4%	7%	2%	nt
COc1ccc(NC(=O)c2cc(-c3ccc(C)o3)nc3ccccc23)cc1OC	-6%	?	7%	-45%	-12%	?	-23%	-12%
CC(C)(C)c1nc(SCC(=O)Nc2ccc3c(c2)OCCO3)c2ccccc2n1	0%	-7%	4%	-4%	?	?	2%	-5.4%
Cc1ccc2oc(=O)c3cc(C(=O)NCCCN4CCN(C)CC4)sc3c2c1	nt	nt	-9%	1%	5%	nt	-1%	nt
NC(=O)c1ccccc1NC(=O)c1ccccc1Cl	nt	nt	-5%	2%	10%	nt	0%	nt
CN1OC(COC(=O)c2ccc(Cl)cc2)CC1c1ccccc1 (stereo not drawn)	12%	-14%	-28%	-27%	12%	-2%	-9%	-0.9%
CCOC(=O)COc1ccc(C(=O)Nc2cccc(Cl)c2C)cc1	11%	nt	-2%	?	4%	-22%[14.2 µM]	0%	nt
CS(=O)(=O)N(CC(=O)Nc1ccc(S(=O)(=O)N2CCCC2)cc1)c1ccccc1	13%	nt	-4%	51%	-18%	2%[46.1 µM]	0%	nt
Cc1ccc(OCCCCN2CCCCC2)c(C)c1	nt	nt	-7%	5%	-8%	nt	-2%	nt

2 successive entries out of the list so far, for reference:
compound	LASV entry inh	Cruzain noTriton	NS1 inh	RE007 growth inh	StopGo reporter	MARV entry inh	SARS PLP yeast	Cruzain inh Det
CS(=O)(=O)N(CC(=O)Nc1ccc(S(=O)(=O)N2CCCC2)cc1)c1ccccc1	13%	nt	-4%	51%	-18%	2%[46.1 µM]	0%	nt
Cc1ccc(OCCCCN2CCCCC2)c(C)c1	nt	nt	-7%	5%	-8%	nt	-2%	nt

High-throughput results (PubChem BioAssay)
